# KCNQ2 inh = KCNQ2 potassium channel inhibitors, primary screen, cell-based, CHO-K1, FluxOR thallium flux, B-score (AID 2156). 20 min; hits give low values; only compounds with negative scores are shown here; some inactives read as strong as hits. 1.1% of 310,000 active. O88943. B-score at 10 µM;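 active = fluorescence ratio B-score at most minus 3 library SDs, with starting brightness B-score within 2 library SDs, cut at about -5.5 in these data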
# Target sequence (O88943 whole entry, looked up): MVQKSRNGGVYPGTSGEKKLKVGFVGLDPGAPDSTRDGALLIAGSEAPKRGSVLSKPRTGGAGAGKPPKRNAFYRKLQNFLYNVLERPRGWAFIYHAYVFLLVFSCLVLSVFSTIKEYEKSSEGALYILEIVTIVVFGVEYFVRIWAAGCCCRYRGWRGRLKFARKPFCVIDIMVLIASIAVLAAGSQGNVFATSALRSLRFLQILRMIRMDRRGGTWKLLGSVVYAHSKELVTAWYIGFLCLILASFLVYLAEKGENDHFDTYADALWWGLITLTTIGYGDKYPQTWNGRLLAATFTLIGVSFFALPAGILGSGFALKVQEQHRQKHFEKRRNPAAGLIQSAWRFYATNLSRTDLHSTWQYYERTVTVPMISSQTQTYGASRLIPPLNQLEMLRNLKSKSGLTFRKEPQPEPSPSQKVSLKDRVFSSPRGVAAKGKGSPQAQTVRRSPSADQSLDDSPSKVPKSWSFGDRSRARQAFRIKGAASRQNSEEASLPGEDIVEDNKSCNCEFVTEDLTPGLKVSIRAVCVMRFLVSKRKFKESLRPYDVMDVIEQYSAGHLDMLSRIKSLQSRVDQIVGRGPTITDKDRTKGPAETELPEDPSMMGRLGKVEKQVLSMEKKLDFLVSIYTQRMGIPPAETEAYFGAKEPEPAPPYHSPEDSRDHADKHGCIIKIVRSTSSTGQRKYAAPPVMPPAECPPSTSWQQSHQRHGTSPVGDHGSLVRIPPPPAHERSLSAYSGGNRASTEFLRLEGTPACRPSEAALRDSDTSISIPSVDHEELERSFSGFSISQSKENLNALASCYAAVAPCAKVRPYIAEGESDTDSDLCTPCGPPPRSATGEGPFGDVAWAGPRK
# KCNQ2 inh baseline = recorded beside KCNQ2 inh, whose call it bears; B-score; measured here: initial fluorescence intensity artifact check;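 brightness before thallium and not channel activity; 0 = typical well and far values either way flag optical interference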
# Starred values were filed as active, the others as inactive; i = inactive. An excerpt. The share of hits here may be higher or lower than overall.
KCNQ2 inh	KCNQ2 inh baseline	SMILES
i	0.85	O=C(CCSc1nnc2ccccn12)Nc1ccc2c(c1)OCO2
i	1.52	COc1ccc(NC(=O)c2sc3nc(C)cc(C)c3c2N)cc1
i	2.6	Nc1[nH]c(N=NC(=O)c2ccccc2)c2ccccc12
i	-1.17	CN(C)c1ccc(C(=O)NN2C(=O)c3ccccc3C2=O)cc1
i	-0.71	COC(=O)c1sccc1NC(=O)Cn1nnc(-c2ccc(C)cc2)n1
-6.41*	0.42*	COc1cccc(NC(=O)c2cc(-c3ccc(OC)cc3OC)nc3ccccc23)c1
i	2.43	CCn1cc(C(=O)Nc2ccc(C)cc2C)c(=O)c2ccc(C)nc21
i	0.57	CCN(CC)C1=NS(=O)(=O)c2cc([N+](=O)[O-])ccc21
i	-0.14	CCOC(=O)c1ccc2nc(C)c(CCC(C)=O)c(Cl)c2c1
i	0.54	CCCCOc1ccc(OCCNC(=O)C2CCCN2C(=O)Nc2ccccc2)cc1 (configuration not stated)
-6.32*	3.2*	Cc1cc(Cl)ccc1NC(=O)CSc1nnc(Cc2cccs2)n1Cc1ccco1
i	1.71	O=C(N/N=C/C=C/c1ccccc1)C1CC1(c1ccccc1)c1ccccc1 (configuration not stated)
-5.72*	0.63*	O=[N+]([O-])c1cccc(OCCCN2CCC(Cc3ccccc3)CC2)c1
i	-1.69	CC(C)NS(=O)(=O)c1ccc(OCC(=O)NCc2ccco2)cc1
i	-0.28	CCOC(=O)c1ccccc1NC(=O)CN1C(=O)c2ccccc2S1(=O)=O
i	-0.22	O=C(NNc1cc(Cl)cc(Cl)c1)c1c(F)cccc1Cl
i	0.24	COCCn1c(=NC(=O)c2cc(Cl)sc2Cl)sc2cc(S(N)(=O)=O)ccc21
i	-0.24	O=C1NCCN/C1=C\C(=O)c1ccc(Br)cc1
i	1.14	CC1CCC2C(=O)N(c3ccc(NC4CCN(Cc5ccccc5)CC4)c([N+](=O)[O-])c3)C(=O)C2C1 (configuration not stated)
i	-0.3	Clc1ccc(CNc2cnccn2)cc1Cl

# Single values from the results shown:
# Reading for COC(=O)c1sccc1NC(=O)Cn1nnc(-c2ccc(C)cc2)n1 in KCNQ2 inh baseline: -0.71
# Reading for O=C(NNc1cc(Cl)cc(Cl)c1)c1c(F)cccc1Cl in KCNQ2 inh baseline: -0.22
# Reading for O=C(CCSc1nnc2ccccn12)Nc1ccc2c(c1)OCO2 in KCNQ2 inh baseline: 0.85

# (cont.)
KCNQ2 inh	KCNQ2 inh baseline	SMILES
i	-1.01	COc1cccc(N2C(=O)Nc3ccc(Br)cc3C2(O)C(=O)NCCN(C)C)c1 (configuration not stated)
i	1.95	N=c1c2c(ncn1Cc1ccco1)Oc1cc(O)ccc1C2c1ccccc1 (configuration not stated)
i	-0.48	O=C(O)CCC(=O)N1N=C(c2ccc(Br)cc2)CC1c1cccc(Br)c1 (configuration not stated)
i	-0.02	CC(C)CC(NC(=O)OC(C)(C)C)c1cn([C@@H](CCCCNC(=O)OC(C)(C)C)C(=O)N2CCN(C(=O)OC(C)(C)C)CC2)nn1 (some centres not stated)
i	1.44	Cn1c(SCc2nc(-c3ccc(Cl)cc3)no2)nnc1-c1ccccc1
i	1.19	COc1ccccc1/C=C/C(=O)NCC(=O)N/N=C/c1ccc(C(=O)O)cc1
i	0.01	CC(C)CNCC(=O)N1c2ccccc2Sc2ccccc21
i	0.29	Cc1cc(NCCN2CCOCC2)n2nc(C)c(-c3ccccc3)c2n1
i	-1.71	CC(C(=O)Nc1ccc2c(c1)OCCO2)n1nnc(-c2ccccc2)n1 (configuration not stated)
i	-1.89	O=C(c1ccc2c(c1)OCO2)C1CCCN(Cc2ccc(OC(F)F)cc2)C1 (configuration not stated)
i	-0.91	CS(=O)(=O)c1ccccc1C(=O)Nc1cc2c(cc1C(=O)O)OCCCO2
i	-0.07	CC(C)OC(=O)CSc1nnc(Cc2ccccc2)n1CC1CCCO1 (configuration not stated)
i	0.29	CCOC(=O)c1ccccc1NC(=O)Cn1cnc2c(nnn2-c2ccc(C)cc2)c1=O
i	-0.41	CC(=O)N/C(=C\c1ccccc1)C(=O)OCC(=O)Nc1cc(S(=O)(=O)N(C)C)ccc1C
i	1.74	N#C/C(=C\c1cccs1)C(=O)N1CCOCC1
i	-1.05	COc1ccc(CCNC(=O)C2CCN(S(=O)(=O)N3CCC(C)CC3)CC2)cc1OC
i	-0.96	O=C(O)C1CC(c2ccccc2)=Nc2ccccc2S1 (configuration not stated)
i	-1.88	CC(C)CC(=O)Nc1ccccc1N1CCN(c2ccc(F)cc2)CC1
i	-0.78	c1ccc2c3c([nH]c2c1)C(C1CCCCC1)N(Cc1ncc[nH]1)CC3 (configuration not stated)
i	0.73	O=C(NCc1ccccn1)Nc1ccc(Cl)c(Cl)c1

# Compound profiles, as listed above. Screens in order: KCNQ2 inh	KCNQ2 inh baseline
# CS(=O)(=O)c1ccccc1C(=O)Nc1cc2c(cc1C(=O)O)OCCCO2 across the screens: i	-0.91
# COc1cccc(NC(=O)c2cc(-c3ccc(OC)cc3OC)nc3ccccc23)c1 across the screens: -6.41*	0.42*

# The list goes on:
KCNQ2 inh	KCNQ2 inh baseline	SMILES
i	3.15	O=C1C(Oc2ccccc2)C(c2ccc3c(c2)OCO3)N1CCc1ccc(F)cc1 (configuration not stated)
i	0.02	C=CCc1cc(C)cc(C)c1OCCn1cncn1
i	1.49	Cc1c(/C=N\NC(=O)c2ccc([N+](=O)[O-])cc2)cnn1C
i	1.18	Cc1nc2ccc(NC(=S)N3CCOCC3)cc2nc1C
i	0.69	CCc1nnc(NC(=O)CCC(=O)N2CCCC2)s1
i	-1.41	CCCN(C(=O)COC(=O)CCOc1ccccc1)c1c(N)n(Cc2ccccc2)c(=O)[nH]c1=O
i	3.02	O=C(NCc1nnnn1-c1ccc(Cl)cc1)c1ccc(Br)o1
i	-1.08	Cc1ccc(C2=NN(CC(=O)O)C(=O)CC2)cc1
i	0.06	CSc1ncccc1C(=O)NC(C)C1CC2CCC1C2 (configuration not stated)
i	0.21	COc1ccc(CCN2C(=O)c3ccccc3C2(O)c2ncc[nH]2)cc1OC (configuration not stated)
i	0.02	CCOC(=O)COc1nc(-c2ccc(Cl)cc2)cc(-c2ccco2)c1C#N
i	-0.14	O=C(COC(=O)c1cc2c(s1)CCC2)Nc1ccc(F)cc1
i	1.06	CC(=O)Nc1ccc(NC(=S)Nc2ccc(Br)cc2)cc1
i	0.41	Cc1c(NC(=S)NC(=O)C(C)(C)C)c(=O)n(-c2ccccc2)n1C
i	0.06	CCS(=O)(=O)Nc1ccc(-c2nnc(SCC(=O)c3cccc(OC)c3)o2)cc1
i	0.28	COc1ccc(NS(=O)(=O)c2ccc(C)c(C(=O)O)c2)cc1
i	-1.96	COCCn1c(N)c(Sc2ccccc2[N+](=O)[O-])c(=O)[nH]c1=O
i	-1.39	COc1ccccc1N1CCN(C(=O)C2CCCCN2S(=O)(=O)c2ccc(C)cc2)CC1 (configuration not stated)
i	-0.23	NC(=O)C(=O)N/N=C/c1c(F)c(F)c(F)c(F)c1F
i	0.06	O=C(NCCc1ccccc1)C1(c2ccccc2)CCCC1
i	2.14	CCN1C(=O)N[C@@H](c2cccc(C(F)(F)F)c2)[C@H](C(C)=O)[C@H]1C
i	0.21	O=C(Cc1ccccc1)Oc1coc(CSc2ncccn2)cc1=O
i	0.79	Cc1ccc2nc(SCC(=O)c3c(N)n(C)c(=O)n(C)c3=O)[nH]c2c1
i	0.34	O=C(Nc1ccccc1)c1cccnc1N1CCCC1
i	-0.55	COc1ccc(NS(=O)(=O)c2cccc(C(=O)NCC(c3ccccc3OC)N3CCCC3)c2)cc1 (configuration not stated)
i	-0.41	COc1ccc2c(c1OC)C(=O)OC2Nc1nc(-c2ccccc2)cs1 (configuration not stated)
i	-0.99	NNc1nc(-c2ccccc2)c2cc(Cl)ccc2n1
i	0.01	CCn1c(CNS(=O)(=O)c2ccc(Br)cc2)nnc1SC
i	2.18	O=C(NC1CCCCC1)C(c1ccc2ncccc2c1)N(Cc1ccc(F)cc1)C(=O)c1cccs1 (configuration not stated)
i	-0.49	COc1ccccc1NC(=O)c1ccc(NC(=O)COC(=O)CC(NC(=O)c2ccccc2Cl)c2ccccc2)cc1 (configuration not stated)
i	0.3	COc1cc(/C=C(\C#N)c2nc3ccccc3[nH]2)c([N+](=O)[O-])cc1OCc1ccccc1
i	-1.12	COc1cccc(NC(=O)c2oc3ccccc3c2NC(=O)C(C)(C)C)c1
i	-3.05	CC(=O)c1ccc(NC(=O)c2cccc(S(=O)(=O)N3CCN(C)CC3)c2)cc1
i	-0.16	O=C1COc2ccc(C(=O)CSc3nnc(Cc4cccs4)n3-c3ccc(Cl)cc3)cc2N1
-5.79*	1.77*	Cn1c(SCC(=O)Nc2ccc(Cl)cc2F)nnc1-c1ccco1
i	-0.86	COc1ccccc1NC(=O)c1ccc(NC(=O)COC(=O)CCC2CCCC2)cc1
i	1.63	CC(=O)N1CCOc2cc(S(=O)(=O)NCc3ccc(F)cc3)c(C)cc21
i	-1.41	CC(C)C(=O)Nc1ccc(C(=O)NNC(=S)NC(=O)c2ccccc2[N+](=O)[O-])cc1
i	1.1	C/C(=C\c1ccccc1)CN1CCC(C(=O)N2CCCC(C)C2)CC1 (configuration not stated)
i	1.01	CCOC(=O)/C(C#N)=C/c1c(N2CCN(c3cccc(Cl)c3)CC2)nc2c(C)cccn2c1=O
i	1.07	CN(C)C(=O)CN(c1ccc(F)c(Cl)c1)S(C)(=O)=O
i	0.85	COc1ccc(/C=N/Nc2nc3ccccc3c(=O)[nH]2)cc1
-8.84*	-1.96*	CCOc1ccc(-c2nc(CSCC(=O)NC3CCCc4ccccc43)c(C)o2)cc1 (configuration not stated)
i	0.01	COc1ccccc1NC(=O)CCN1C(=O)/C(=C\c2cc(OC)c(OC)c(OC)c2)SC1=S
i	1.46	CC1CCCN(C(=O)C2(NC(=O)Nc3cccc(F)c3)CCCCC2)C1 (configuration not stated)
i	-0.01	O=C(CCc1ccccc1O)N/N=C/c1ccc(Sc2cccc3cccnc23)o1
i	1.36	Cc1cccc(C(=O)N[C@H](C(=O)Nc2ccc(C)c(S(=O)(=O)N(C)C)c2)C(C)C)c1
i	-1.91	O=C(NC1CCCc2c1cnn2-c1ccc(F)cc1F)c1csnn1 (configuration not stated)
-5.68*	-0.94*	O=C1CN(c2nc(-c3cccnc3)nc3sc4c(c23)CCCC4)CCN1
i	-0.99	O=C(CSc1cc(Cl)ccc1Cl)NC1CCCc2ccccc21 (configuration not stated)
i	-0.36	Cc1ccc(CN=C(Nc2ccccc2)NC2CCCCC2)cc1
i	2.03	Cc1cc(C)n(C(C)CNS(=O)(=O)c2ccc(C)c(C)c2)n1 (configuration not stated)
i	-0.71	Cc1noc(/C=C/c2ccco2)c1S(=O)(=O)N1CCC(C(=O)N2CCc3ccccc32)CC1
i	-1.11	CCCn1c(-c2ccc[nH]c2=O)nc2ccccc21
i	-0.43	O=C(Cc1nc2ccccc2[nH]c1=O)c1ccc(Cl)cc1
i	0.96	NC(CSCc1ccccc1Cl)C(=O)O (configuration not stated)
i	0.53	CCOC(=O)C1=NNC(C(=O)c2ccccc2)C1c1ccc(OC)cc1 (configuration not stated)
i	0.98	CCCc1nc(SCC(=O)N2CCc3ccccc3C2)c2ccccc2n1
i	-0.02	CN(CC12CC3CC(CC(C3)C1)C2)C(=O)c1ccco1
i	-2.54	COc1ccc(C2=NN(CN3C(=O)C(=O)c4ccccc43)C(c3ccc(OC)cc3)C2)cc1 (configuration not stated)

# The list goes on:
KCNQ2 inh	KCNQ2 inh baseline	SMILES
i	0.68	Cc1ccc(OCCCCNC2CCCC(C)C2C)c(C)c1 (configuration not stated)
i	1.04	O=C(O)CC(CC(=O)Nc1ccc(F)c(Cl)c1)c1ccc(Cl)cc1Cl (configuration not stated)
i	-0.65	Cc1ccc(-c2cc(C(F)(F)F)n3nc(C(=O)N4CCN5CCCC5C4)cc3n2)cc1 (configuration not stated)
i	-2.02	O=C(NC(=S)Nc1cccc2c(O)cccc12)c1cccc(Br)c1
i	2.25	CSc1ccccc1C(=O)N1CCC(n2nccc2NC(=O)C(C)(C)C)CC1
i	-0.08	COc1cc2cc(NC(C)=O)cc(NCc3ccccc3)c2cc1OC
i	-0.03	CC(C)c1cc(C(=O)N/N=C/c2cccnc2)n[nH]1
i	-3.53	CC(C)(C)C(=O)N1CCN(c2ccc([N+](=O)[O-])c(NCC3CCCO3)c2)CC1 (configuration not stated)
i	-0.32	CC(=O)c1cccc(NC(=S)NNC(=O)c2ccco2)c1
i	-1.71	CC1CN(Cc2cc(=O)[nH]c(C(C)C)n2)CC(C)O1 (configuration not stated)
i	-1.78	COc1cc(/C=N/NC(=O)c2ccncc2)ccc1OC(=O)c1ccco1
i	0.03	CN1CCN(c2nc3ccccn3c(=O)c2/C=C(\C#N)S(=O)(=O)c2ccc(Cl)cc2)CC1
i	-0.77	O=C(CN(C(=O)CSc1nnc(COc2ccccc2)o1)c1ccc(F)cc1)NC1CCCC1
i	-1.93	Cc1ccc(C(=O)c2cc3ccccc3o2)cc1
-7.53*	-0.57*	CCN1C(=O)C(CC(=O)Nc2ccc(OC)cc2)N(CCc2ccc(F)cc2)C1=S (configuration not stated)
i	2.02	CN1CCN(c2ccccc2NC(=O)c2sc3ccccc3c2Cl)CC1

# Ordered by length of the SMILES (ascending): some entries from above.
KCNQ2 inh	KCNQ2 inh baseline	SMILES
i	-0.32	CC(=O)c1cccc(NC(=S)NNC(=O)c2ccco2)c1
i	-0.08	COc1cc2cc(NC(C)=O)cc(NCc3ccccc3)c2cc1OC
i	1.04	O=C(O)CC(CC(=O)Nc1ccc(F)c(Cl)c1)c1ccc(Cl)cc1Cl (configuration not stated)
-7.53*	-0.57*	CCN1C(=O)C(CC(=O)Nc2ccc(OC)cc2)N(CCc2ccc(F)cc2)C1=S (configuration not stated)
i	0.03	CN1CCN(c2nc3ccccn3c(=O)c2/C=C(\C#N)S(=O)(=O)c2ccc(Cl)cc2)CC1

# Pulled by compound from the list above (four):
KCNQ2 inh	KCNQ2 inh baseline	SMILES
i	-0.08	COc1cc2cc(NC(C)=O)cc(NCc3ccccc3)c2cc1OC
i	-0.03	CC(C)c1cc(C(=O)N/N=C/c2cccnc2)n[nH]1
i	-2.02	O=C(NC(=S)Nc1cccc2c(O)cccc12)c1cccc(Br)c1
i	2.25	CSc1ccccc1C(=O)N1CCC(n2nccc2NC(=O)C(C)(C)C)CC1
